FGF22 binding: binders of recombinant human FGF22 by thermal shift | AID 651658 | Q9HCT0 | SYPRO orange fluorescence; percent of sucrose octasulfate shift, DMSO zero | calls only at 9.99 µM | 340,000 compounds, 1.5% hits;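 active = melting point raised past a set limit in the mean and every replicate; three in four hits are not shown here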
Beta2AR agonist: activates human beta-2 adrenergic receptor causing internalization. Am2.2-beta2AR cells, FAP receptor internalization, flow cytometry; reference of the scale not given here. response, % (no concentration beside the values). 340,000 compounds, 0.43% hits. AID 504454;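 active = response above a set limit, near 3 SD of response in nonfluorescent compounds, cut at about 42% in these data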;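 note: stock transfer was 100 nL into about 11 µL; a reference agonist was the positive control; negative values mostly stem from fluorescent compounds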
HNF4A DNA FP: change in binding of human HNF4 alpha to DNA; P41235; HNF4a-FITC DNA binding, fluorescence polarization, 1 h; activity change, % at 10 µM; 360,000 compounds, 0.3% hits; AID 1224865; in the data active = activity change above about 30%, passing the limit was not always enough;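 note: controls were the assay level and a saturating level of protein; the project sought stronger binding though the title names inhibitors; some compounds called inactive have numbers as strong as hits; positive values seem to mean higher polarization but the record does not say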
UCH37 inh: human UCH37 deubiquitinating enzyme inhibition | purified proteasome/UCH37, Ub-AMC cleavage fluorescence | AID 588478 | inhibition, % (no concentration beside the values) | 330,000 compounds, 0.33% hits;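 active = mean of two replicates above 20%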;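 note: 0% = compound-free wells with enzyme and 100% = wells lacking proteasome; stock transfer was 100 nL into about 20 µL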
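System: Proteasome-associated human UCH37 deubiquitinase; Input: 0.15 nM proteasome in added enzyme buffer; Also added: Ub-AMC substrate from 1 µM stock; Incubation: 30 min compound-proteasome preincubation then 25 min substrate reaction, room temperature; Detection: fluorescence, ex 355 nm, em 460 nm; Read-out: % inhibition of Ub-AMC cleavage fluorescence; Benchmarks: no-proteasome and no-compound wells.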
E coli growth: blocks Escherichia coli growth | AID 1053175 | OD600, 23 h; active compounds read low | 330,000 compounds, 0.21% hits | OD600 absorbance (concentration not given with the values);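 active = OD600 absorbance below the run mean of sample wells minus 3.6 SD, in any replicate, cut at about 0.56 in these data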;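 note: stock transfer was 300 nL into about 60 µL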
LANA-H2A inh: blocks KSHV LANA binding to histone H2A/H2B; inhibition, % (concentration not given with the values); 320,000 compounds, 0.6% hits; cell-free LANA-H2A/H2B peptide, fluorescence polarization; Q9QR71; AID 2629; in the data active = inhibition mostly above about 10%, no sharp cut-off; inactive = mostly below about 6.7%;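 note: stock transfer was 7.5 nL into about 10 µL; 0% = median of vehicle wells and 100% = median of positive control wells; one replicate is shown; the record names a cut of 25% in any replicate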
Target sequence (Q9QR71 whole entry, looked up): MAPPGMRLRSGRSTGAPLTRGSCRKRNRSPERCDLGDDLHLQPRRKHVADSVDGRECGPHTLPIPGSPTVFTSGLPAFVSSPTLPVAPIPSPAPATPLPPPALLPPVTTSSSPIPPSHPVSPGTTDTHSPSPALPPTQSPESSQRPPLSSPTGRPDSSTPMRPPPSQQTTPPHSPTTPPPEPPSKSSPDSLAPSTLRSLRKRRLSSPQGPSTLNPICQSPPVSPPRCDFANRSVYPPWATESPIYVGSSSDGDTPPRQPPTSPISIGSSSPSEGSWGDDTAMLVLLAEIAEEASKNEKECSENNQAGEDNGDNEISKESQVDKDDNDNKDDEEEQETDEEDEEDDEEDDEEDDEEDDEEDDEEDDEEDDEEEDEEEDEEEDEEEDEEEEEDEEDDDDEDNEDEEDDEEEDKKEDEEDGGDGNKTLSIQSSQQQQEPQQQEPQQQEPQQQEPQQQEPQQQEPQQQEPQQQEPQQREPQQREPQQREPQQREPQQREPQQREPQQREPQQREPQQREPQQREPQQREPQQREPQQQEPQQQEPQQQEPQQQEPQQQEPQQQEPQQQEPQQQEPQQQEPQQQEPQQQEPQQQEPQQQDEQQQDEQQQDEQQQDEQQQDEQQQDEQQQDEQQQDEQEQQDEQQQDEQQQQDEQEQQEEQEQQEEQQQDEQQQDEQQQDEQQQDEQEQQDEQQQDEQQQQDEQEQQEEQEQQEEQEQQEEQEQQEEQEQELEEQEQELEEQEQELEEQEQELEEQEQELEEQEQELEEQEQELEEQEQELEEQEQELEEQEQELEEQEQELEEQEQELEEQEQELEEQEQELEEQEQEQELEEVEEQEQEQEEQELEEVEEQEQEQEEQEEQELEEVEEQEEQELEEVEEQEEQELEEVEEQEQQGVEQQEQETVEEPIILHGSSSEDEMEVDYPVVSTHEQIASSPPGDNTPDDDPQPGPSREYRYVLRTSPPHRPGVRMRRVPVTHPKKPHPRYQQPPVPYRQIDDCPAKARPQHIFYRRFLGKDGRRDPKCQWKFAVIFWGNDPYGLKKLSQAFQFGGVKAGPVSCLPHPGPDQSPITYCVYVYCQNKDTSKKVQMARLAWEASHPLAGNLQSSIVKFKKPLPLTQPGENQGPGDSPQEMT
ALR inh: human ALR oxidase inhibition via reduced H2O2; P55789; purified ALR, DTT oxidation, H2O2 HRP-luminol luminescence; inhibition, % (concentration not given with the values); 290,000 compounds, 3.8% hits; AID 485317;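 active = mean and each replicate at 75% or more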;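 note: stock transfer was 7.5 nL into about 7.5 µL; 0% = neutral wells and 100% = wells with inactivated enzyme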
* marks the source's active call; other numbers are inactive results; i = inactive; x = not tested or not shown; & = joins results of further samples; ! = not active in a repeat. The list is partial; count on the stated rates, not on these rows.

Compound	FGF22 binding	Beta2AR agonist	HNF4A DNA FP	UCH37 inh	E coli growth	LANA-H2A inh	ALR inh
COc1ccc(NC(=O)C(=O)NCCCn2ccnc2)cc1	i	-5.1	1.7	-0.1	0.689	-2.2	-13.1
Cc1ccc(OCCN2CCN(C(=O)CCC(=O)Nc3nnc(C)s3)CC2)cc1	x	-1.9	-0.8	0.5	0.747	1.2	8.5
COc1cc(/C=C/C(=O)OCC(=O)N2CCOCC2)ccc1OCC#N	i	-4.7	0.8	-20.5	0.69	-0.5	19.3
Cc1ccc(C)c(NC(=O)C2CC(Cl)=CCC2C(=O)O)c1 (stereo unspecified)	x	9.3	4.7	0.3	0.66	1.4	0.0
CC1(C)NC(=O)N(CC(=O)Nc2ccc(-n3cnnn3)cc2)C1=O	i	4.6	0.8	1.8	0.684	1.7	-3.0
CCCCCCN(C(=O)CCCN1C(=O)NC(c2ccc(-c3ccccc3)cc2)C(C(=O)OCc2ccccc2)=C1C)C(C)C(=O)NCCCC (stereo unspecified)	i	-0.5	-3.4	0.5	0.731	x	x
CC(C)CC(=O)N1CCN(S(C)(=O)=O)CC1	x	2.8	-0.6	-0.5	0.712	-4.0	-14.8
CC(C)CNC(=O)COC(=O)/C=C/c1ccco1	x	-4.3	-6.1	6.8	0.718	2.3	5.0
O=C(NCc1cccnc1)c1cccc(OC2CCN(Cc3ccc(CO)o3)CC2)c1	i	13.5	-4.1	3.6	0.68	-8.4	12.6
Cc1ccc(S(=O)(=O)NCCNS(=O)(=O)c2ccc(C)cc2)cc1	i	x	-1.6	2.4	0.687	19.4*	-2.9
O=C(C1=NNCC1c1ccccc1)C1OC1c1ccccc1 (stereo unspecified)	i	0.3	-1.2	7.7	0.672	-3.5	16.9
CCN(CC)C(=O)C(Oc1ccc(S(=O)(=O)N2CCCC2)cc1[N+](=O)[O-])c1ccccc1 (stereo unspecified)	i	8.5	-0.1	3.6	0.645	-2.0	18.4
Cc1c(Cl)c([N+](=O)[O-])nn1CCCC(=O)O	i	-4.1	-0.8	0.4	0.702	2.2	-1.5
C=CCOc1cccc(C2/C(=C(/O)c3ccc(Cl)cc3)C(=O)C(=O)N2CCN2CCOCC2)c1 (stereo unspecified)	x	5.9	6.1	11.2	0.709	-0.8	x
COc1ccc(NC2CCCN(C(=O)c3ccc4nccnc4c3)C2)cc1OC (stereo unspecified)	i	0.4	2.9	3.2	0.717	4.1	95.6*
COc1ccc(OCC(=O)Nc2nnc(S(=O)(=O)N3CCCCCC3)s2)cc1	i	-3.8	1.4	6.9	0.74	0.4	x
CN(CC(=O)Nc1ccc(Cl)c(Cl)c1)CC(=O)Nc1ccc2c(c1)OCO2	i	-4.9	1.4	1.5	0.657	x	-2.1
C=CCc1cc(OC)ccc1OCC(O)CN1CCN(c2ccc(OC)cc2)CC1 (stereo unspecified)	x	2.2&8.4	-5.2&1.9	2.2&-0.3	0.64&0.703	-0.4&-1.4	79.4*!
C=CCC1(Cl)C(=O)C(Cl)=C(N2CCOCC2)C1(OC)OC (stereo unspecified)	i	1.1	-1.1	4.1	0.715	7.6	1.1
CCNS(=O)(=O)c1ccc(CCC(=O)Nc2ccc3c(c2)OCCO3)cc1	i	0.3	-0.5	0.5	0.713	-1.5	0.8
O=c1[nH]nc(CNc2ccc(Cl)cc2Cl)c2ccccc12	i	-6.4	2.4	0.9	0.72	3.8	-8.4
CCOc1ccc(S(=O)(=O)NCCC(=O)N2CC(C)OC(C)C2)cc1 (stereo unspecified)	i	-5.5	-2.0	3.5	0.682	-1.0	-26.2
Cc1ccc(Nc2nc(C)nc3c2oc2ccccc23)cc1	i	13.0	-1.4	-68.5	0.663	-1.1	18.6
CCOc1ccc(CCN2C(=S)N([C@@H](CC(C)C)CN3CCCC3CN3C(=S)NC[C@@H]3CC(C)C)C[C@@H]2CC(C)C)cc1 (stereo partly specified)	i	5.5	0.6	x	x	x	x
Nc1nc(SCC(=O)Nc2cccc(S(=O)(=O)N3CCCCCC3)c2)n[nH]1	i	-1.7	-0.5	3.2	0.714	171.3*	-5.9
COc1ccccc1CNC(=O)C1CC(c2c(Cl)cccc2Cl)=NO1 (stereo unspecified)	i	4.4	-0.1	-0.1	0.667	0.7	10.0
CCN(CC(=O)NCc1cccs1)C(=O)CCOc1ccccc1	i	-1.0	4.7	1.8	0.642	3.1	1.6
Cn1c(CC(=O)Nc2ccccc2Cl)nnc1SCC(=O)NC1=NCCS1	i	-2.7	-0.2	4.6	0.651	-2.1	-8.8
COc1ccccc1-c1nnc(NC(=O)OCC(C)C)s1	x	-0.2	1.5	0.5	0.782	-0.7	1.2
O=C1COc2ccc(C(=O)COC(=O)CCc3ccc(S(=O)(=O)N4CCOCC4)cc3)cc2N1	x	-6.5	0.8	-1.7	0.766	-8.5	-4.2
COC(=O)c1cc(NCc2c(F)cccc2Cl)ccc1N1CCOCC1	x	-0.8	2.9	-41.2	0.703	2.0	99.2*
Cc1cc(C(=O)NN=Cc2ccc(-c3ccc(F)cc3)o2)c(C)o1	i	3.1	3.0	-6.9	0.648	-1.7	x
COc1ccc(-c2nnc(CSc3ncnc4sc5c(c34)CCC5)o2)cc1OC	i	-2.9	-2.2	x	x	x	x
CCOC(=O)C1(Cc2ccccc2Cl)CCN(S(=O)(=O)N(C)C)CC1	i	-5.6	-3.9	3.5	0.7	0.9	0.2
COc1ccc(Nc2cc(C)nc3ncnn23)c(OC)c1	i	4.2	3.6	2.4	0.677	2.0	-12.6
O=C(COc1ccc(S(=O)(=O)N2CCOCC2)cc1Cl)N1CCCC1	i	-8.7	-3.2	1.6	0.668	1.9	-4.5
Cc1ccc(S(=O)(=O)NCCC(=O)NNC(=O)C2COc3ccccc3O2)cc1 (stereo unspecified)	i	2.5	-1.1	-0.2	0.67	2.1	13.4
CCN(CCCNC(=O)c1[nH]c(C)c(C(C)=O)c1C)c1cccc(C)c1	x	-3.2	0.7	5.4	0.72	-1.5	98.6*
O=C(Oc1ccc(OC(=O)c2ccncc2)cc1)c1ccncc1	i	0.4	-4.5	1.5	0.693	0.8	-5.1
COc1ccccc1CN1CC(C(=O)N2CCCCO2)CCC1=O (stereo unspecified)	i	0.3	0.5	4.9	0.651	-4.6	-4.2
Cc1ccc(-c2cn(C[C@H]3CC[C@@H]([C@@H]4CC[C@H](Cn5cc(-c6ccc(C)cc6)nn5)O4)O3)nn2)cc1	i	-6.2	0.2	0.5	x	0.6	x
O=C(N/N=C/c1ccccc1O)C1CC(=O)N(c2ccc(Cl)cc2)C1 (stereo unspecified)	i	7.7	3.7	x	x	-0.3	-9.3
CCN(CC)C(=O)Cn1cc(C(=O)C(=O)N2CCN(c3ccc([N+](=O)[O-])cc3)CC2)c2ccccc21	i	0.5	5.4	10.7	0.7	0.6	-9.9
CCC(C)NC(=O)C1CCN(S(=O)(=O)c2ccc(-n3cnnn3)cc2)CC1 (stereo unspecified)	i	8.4	4.9	1.4	0.664	-0.7	-8.2
CCCC(=O)Nc1cc(S(=O)(=O)N2CCOCC2)ccc1N1CCCCC1	i	-1.0	2.4	2.3	0.69	-3.0	-2.4
Cc1nc(C(=O)Nc2ccc(F)cc2)nn1-c1ccc([N+](=O)[O-])cc1	x	-0.1	0.8	2.8	0.717	12.4*	-26.4
O=C(O)c1cc(S(=O)(=O)NC2CCCc3ccccc32)ccc1O (stereo unspecified)	i	4.7	0.2	1.9	0.692	-1.7	-4.0
Cc1c(Cl)c([N+](=O)[O-])nn1CCCC(=O)NC(C)c1ccccc1 (stereo unspecified)	x	-3.3	-0.3	6.9	0.683	6.3	-9.7
CCOC(=O)N1CCC(NC(=O)CS(=O)(=O)Cc2nc(-c3cccc(Cl)c3)oc2C)CC1	i	-7.7	-0.5	2.1	0.667	5.7	51.9
O=C(OCc1csc(-c2ccccc2)n1)C1=NN(c2ccccc2)C(=O)CC1	i	1.9	3.9	0.4	0.654	-2.2	x

Continuation.
Compound	FGF22 binding	Beta2AR agonist	HNF4A DNA FP	UCH37 inh	E coli growth	LANA-H2A inh	ALR inh
COc1ccc(CC(=O)NC(C)c2nnc(SCC(=O)c3ccc(OC)cc3)n2C)cc1 (stereo unspecified)	i	-4.8	1.4	3.7	0.688	1.3	44.4
Cc1c(CC(=O)N[C@@H](CCCNC(N)=O)C(=O)O)c(=O)oc2cc3oc4c(c3cc12)CCCC4	i	9.1	7.1	x	x	-0.7	8.4
O=c1cc(CN2CCN(Cc3ccccc3)CC2)c2ccc(O)c(O)c2o1	i	10.9	-15.8	-2.3	0.64	5.9	99.5*
CN(C)N1C(N)=C(C#N)C(c2cccs2)C2=C1CCCC2=O (stereo unspecified)	i	2.9	2.5	6.2	0.686	13.7	8.3
Clc1ccccc1OCc1nn[nH]n1	i	2.0	2.5	2.7	0.657	3.5	x
COc1ccc(N2CCN(C3CCCN(C(=O)CSC)C3)CC2)cc1 (stereo unspecified)	i	-6.1	6.3	4.4	0.686	-6.0	x
Cc1c(OCC(=O)NCCN2CCOCC2)ccc2c3c(c(=O)oc12)CCC3	i	-1.9	-0.1	-13.7	0.64	-3.8	-0.5
C=CCNC(=S)NNC(=O)c1ccc(OCC(C)C)cc1	i	-11.8	0.7	4.1	0.736	19.2*	17.6
O=S(=O)(NC1=NCCC1)c1cccc(NS(=O)(=O)c2ccc(OC(F)(F)F)cc2)c1	x	-0.8	0.5	-0.2	0.649	5.9	-2.5
Cc1nn(C)cc1S(=O)(=O)N1CCN(Cc2ccccc2Cl)CC1	i	1.9	-1.8	1.6	0.69	0.6	-13.0
COC(=O)c1ccc(Oc2nc(Nc3ccc(F)cc3)nc(N3CCCC3)n2)cc1	x	3.1	0.6	3.0	0.725	-2.0	0.7
Cc1nnc(SCC(=O)NCC2COc3ccccc3O2)s1 (stereo unspecified)	i	-1.4	4.8	2.1	0.663	1.5	-0.4
CN(C)S(=O)(=O)Oc1cccc(C(=O)Nc2cccc(Cl)c2)c1	x	5.9	-0.3	5.1	0.659	0.1	x
O=C(CC12CC3CC(CC(C3)C1)C2)Nc1ccccc1N1CCOCC1	i	4.1	-2.5	-2.1	0.647	8.4	-4.1
CC(C)c1onc(C(=O)N(C)Cc2ccccc2)c1[N+](=O)[O-]	i	1.1	3.3	-0.7	0.715	1.2	-12.1
Cc1ccc(CCNC(=O)C2CC(c3ccc(C(F)(F)F)cc3)=NO2)cc1 (stereo unspecified)	i	-3.1	-5.8	1.1	0.685	2.9	5.7
COc1ccc(OC)c(C(c2nnnn2C2CCCC2)N2CCN(c3ccccc3F)CC2)c1 (stereo unspecified)	x	4.3	1.4	0.6	0.789	-0.8	-1.2
CCc1cc(-c2[nH]ncc2-c2ccc3c(c2)OCO3)c(O)cc1O	x	15.8	-3.1	5.9	0.624	-8.4*	11.7
CCOc1cc(C2NC(=O)NC(c3ccccc3)=C2C(C)=O)ccc1OC(C)=O (stereo unspecified)	i	-1.6	-2.3	3.5	0.674	4.2	0.8
O=C(c1ccc(Cn2cc([N+](=O)[O-])cn2)o1)N1CCCC1	i	-4.9	6.0	3.0	0.661	x	x
COc1cc2c(cc1OC)CN(c1ccc(C(N)=O)cc1[N+](=O)[O-])CC2	i	10.0	1.0	-2.6	0.641	-5.3	-6.4
CCOc1cc(C(=O)N2CCN(c3ccccc3)CC2)cc(OCC)c1OCC	x	-1.5	0.0	-1.3	0.666	-0.5	17.0
NC(=O)C1CC(=O)N(c2ccc(OCc3ccccc3Cl)cc2)C1 (stereo unspecified)	x	-1.8	0.7	3.2	0.723	1.4	-1.9
